Screening results: PubChem, several laboratories
Mtb betalactam = beta-lactam sensitization of Mtb H37Rv. M. tuberculosis H37Rv growth with meropenem, percent inhibition; hits of this screen are not shown here. AID 434955. inhibition, % at 25 µM. 330,000 tested, 0.27% active;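 active means about 74% or more and at least 40 points above the plate without the antibiotic, then above 30% in a dose series; inconclusive means first-round hits that could not be retested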;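 further: growth measured after seven days incubation then overnight dye step; 0% = bacteria only wells and 100% = bacteria with antibiotic; twin plates without the antibiotic show which effects depend on it; some results filed as inactive read as strong as hits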
RecA intein inh = blocks M. tuberculosis RecA intein splicing | P9WHJ3 | cell-free RecA intein splicing, fluorescence | inhibition, %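 (about 9 µM by stock and volumes)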 | 290,000 tested, 0.75% active | AID 2221; in the data active means inhibition above about 30%; inconclusive means no clear call, values can overlap the other calls;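 further: 0% = vehicle wells and 100% = reference inhibitor control wells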
Target sequence (P9WHJ3 whole entry, looked up): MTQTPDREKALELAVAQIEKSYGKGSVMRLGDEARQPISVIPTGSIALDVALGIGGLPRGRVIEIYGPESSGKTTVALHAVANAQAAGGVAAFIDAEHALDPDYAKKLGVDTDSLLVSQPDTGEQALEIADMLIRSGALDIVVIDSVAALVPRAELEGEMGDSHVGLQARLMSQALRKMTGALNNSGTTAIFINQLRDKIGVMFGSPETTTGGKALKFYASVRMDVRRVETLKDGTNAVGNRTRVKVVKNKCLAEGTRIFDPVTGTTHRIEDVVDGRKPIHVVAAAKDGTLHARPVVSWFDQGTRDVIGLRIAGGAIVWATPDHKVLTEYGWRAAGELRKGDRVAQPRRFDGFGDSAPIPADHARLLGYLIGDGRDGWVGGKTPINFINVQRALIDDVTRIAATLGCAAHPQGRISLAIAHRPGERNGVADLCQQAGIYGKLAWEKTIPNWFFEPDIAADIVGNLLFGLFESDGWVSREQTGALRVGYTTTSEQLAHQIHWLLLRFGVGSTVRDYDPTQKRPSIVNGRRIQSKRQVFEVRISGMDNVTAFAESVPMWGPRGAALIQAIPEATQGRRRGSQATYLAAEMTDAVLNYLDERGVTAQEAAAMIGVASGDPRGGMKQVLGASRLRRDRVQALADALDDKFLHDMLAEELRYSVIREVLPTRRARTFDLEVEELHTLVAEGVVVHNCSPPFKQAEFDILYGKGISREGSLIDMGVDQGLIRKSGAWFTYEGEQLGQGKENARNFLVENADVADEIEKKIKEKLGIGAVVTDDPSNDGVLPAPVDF
Arbovirus anti = antivirals against arbovirus infection. arbovirus infection cell-based antiviral screen. inhibition, % at 10 µM. 200,000 tested, 0.37% active. AID 1251;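 active means inhibition from about 30%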;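 further: bluetongue infection of BSR cells; cell survival read as ATP light after 72 h; 0% = infected wells without compound and 100% = uninfected wells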
YopH PTP inh = YopH (Yersinia) phosphatase inhibition; fluorescence Ex485/Em525; inhibition, %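 (about 10 µM by stock and volumes)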; 140,000 tested, 0.16% active;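 active means inhibition of 50% or more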;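 further: controls were vehicle for no effect and minimum signal wells for full effect; inactives centre near -20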
Mtb growth = M. tuberculosis H37Rv growth inhibitors, H37Rv strain (AID 1626) | 220,000 tested, 0.95% active | inhibition, % at 10 µM; hits with a dose series show IC50 in µM | M. tuberculosis H37Rv growth inhibition; higher % means a stronger effect;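 active means confirmed in a dose series; inconclusive means inhibition above 80% but not taken into the dose series; inactive means below 80% or under 30% at every dose of the series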;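 further: bacteria incubated seven days before Alamar blue readout; 0% = bacteria only wells and 100% = bacteria with antibiotic wells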
Arbovirus anti repeat = second read-out of Arbovirus anti, no call of its own (marks repeat the call); inhibition, %; measured here: 10K subset replicate screen; many hits read low in the repeat;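 first of two repeat runs on a subset; 0% = infected and 100% = uninfected wells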
An asterisk follows results filed as active; ? = inconclusive; nt = not tested or not shown.

SMILES	Mtb betalactam	RecA intein inh	Arbovirus anti	YopH PTP inh	Mtb growth	others
COc1ccc(N(CC(=O)NCc2ccccn2)S(=O)(=O)c2ccccc2[N+](=O)[O-])c(OC)c1	2	-5.3	-1	nt	-11%
CCOC(=O)C1=C(C)NC(=S)NC1c1cc(C)sc1C (centres undefined)	1	4.2	5	nt	5%
O=C(NCc1ccccc1)C1CCCN1C(=O)Nc1ccccc1[N+](=O)[O-] (centres undefined)	9	-3.4	nt	nt	nt
Cc1cc(CN(C)Cc2cn(C)nc2-c2ccc(Oc3ccccc3)cc2)on1	-1	4.3	nt	nt	-1%
Cc1nnc(NC(=O)C2C3C=CC(O3)C2C(=O)O)s1 (centres undefined)	-4	-0.6	-2	-27	-13%
O=C(CCC(=O)Nc1cc(C(F)(F)F)ccc1Cl)N/N=C\c1cc([N+](=O)[O-])ccc1O	7	-0.1	nt	nt	nt
Cn1c(N)c(C(=O)COC(=O)c2cccs2)c(=O)n(C)c1=O	-3	-2.5	17	-47	-6%
COc1ccc(Cn2nnnc2C(CC(C)C)N2CCN(c3ccccc3)CC2)cc1 (centres undefined)	-9	2.2	-11	-8	5%
CC1N(C(=O)N2CCOCC2)CCN1S(=O)(=O)c1cccc(C(F)(F)F)c1 (centres undefined)	-11	-0.6	nt	nt	nt
Cc1ccc(SC[C@H](CC(C)C)N2CCN(CCc3ccccc3)CCC2=O)cc1	nt	9.7	nt	nt	16%
CCOC(=O)c1ccc(NC(=S)Nc2ccc(Cl)cn2)cc1	26	-1.3	-7	nt	?
Cc1ccc(-n2ncc3c2CC(C)(C)CC3NC(=O)CCCN2CCCCC2=O)cc1 (centres undefined)	-5	-1.0	nt	nt	nt
Clc1ccc(Cn2ccc(-c3ccc4c(c3)OCO4)n2)cc1Cl	1	1.9	-23	-42	0%
Cc1nc(NC(=O)COC(=O)C(NC(=O)c2ccco2)C(C)C)c(Cl)cc1Cl (centres undefined)	-2	-0.3	7	-20	0%
CCC(=O)NC(Nc1cc(C)ccn1)(C(F)(F)F)C(F)(F)F	6	-1.1	1	-6	-11%
COc1ccc(CCNCC(O)COc2ccc(OC)cc2C(C)(C)C)cc1 (centres undefined)	74	4.8	nt	nt	nt
CCCCn1c(O)c(C(CC)=Nc2ccc(OC)cc2OC)c(=O)[nH]c1=O	-12	-0.5	-19	-7	-1%
CCOC(=O)/C(C#N)=C/c1cn(CCC(=O)O)nc1-c1ccc(OC)cc1	-6	0.4	-4	nt	-1%
CCNC(=O)C12CCC(C)(C(=O)O1)C2(C)C (centres undefined)	1	-1.9	6	nt	0%
CCn1nc(C(=O)Nc2ccccc2N2CCCC2)c2ccccc2c1=O	53	13	nt	nt	nt
Fc1ccc(-n2[nH]nnc2=S)cc1N1CCCC1	-5	nt	2	-16	7%	Arbovirus anti repeat=2
COc1ccc(-c2n[nH]c(C)c2-c2cscn2)c(O)c1	-1	-2.2	nt	nt	-5%
COc1ccc(CN2[C@@H](CC(=O)O)c3cc(C(F)(F)F)ccc3S2(=O)=O)cc1	-6	-6.7	nt	nt	-13%
Cc1cc(NO)c(C(C)C)cc1N=O	9	-2.2	-3	-23	1%
CCCNC(=S)N1CCC(n2cnc3ccccc32)CC1	-2	4.8	-2	nt	-4%
Fc1cc(F)c2nc(N3CCCC3)sc2c1	4	-1.0	6	nt	nt
Cc1sc(NC(=S)NC(=O)CCc2ccccc2)c(C(N)=O)c1C	3	nt	-7	-28	0%
CCCN(CC1CC1)C(=S)NC(=O)C1CC1	9	2.2	0	nt	3%
COc1ccc(CN2CCN(C(=O)c3cc(-c4cccnc4)nc4ccc(Cl)cc34)CC2)c(OC)c1OC	11	-0.4	-8	nt	7%
C=CCN1C(=O)c2ccc(C(=O)OCC(=O)Nc3ccc(S(N)(=O)=O)cc3)cc2C1=O	6	-0.9	nt	nt	nt
CC(C)C1CC(CCNCc2ccc3c(c2)OCO3)(c2ccccc2)CCO1 (centres undefined)	-8	2.3	nt	nt	nt
CC(C)Sc1cc(N2CCCC2)nc(-c2ccccc2Cl)n1	15	0.8	9	-33	14%
COC(=O)C(O)(c1c(C)[nH]n(-c2ccccc2)c1=O)C(F)(F)F (centres undefined)	5	92*	-3	-27	-12%
O/N=C(/Cc1ccccn1)c1ccccc1	-12	3.1	9	-5	2%	Arbovirus anti repeat=0
CCOC(=O)C(CC(C)C)CP(=O)(O)CNC(=O)OCc1ccccc1 (centres undefined)	-3	18	4	-10	1%
CC(=O)c1cccc(NC(=O)C(=O)Nc2cccc3ccccc23)c1	15	-0.6	-10	nt	-3%
CCOC(=O)c1ccc(S(=O)(=O)N2CC(=O)Nc3ccccc32)cc1	4	-1.5	nt	nt	nt
N#C/C(=C\Nc1ccccc1O)c1nc2ccccc2o1	2	3.8	-36	-19	4%
Cc1ccc(-c2nsc(SCC(=O)NCC3CCCO3)n2)cc1 (centres undefined)	100	1.1	1	nt	?
O=S1(=O)[C@H]2C[C@@H]3C=C[C@@]2(CN1Cc1cccc(F)c1)O3	-15	-1.0	nt	nt	nt
C[C@@H]([C@@H](O)c1ccccc1)N(C)C(=O)Cc1ccccc1	-20	-1.2	nt	nt	-16%
CCn1c(C(O)c2cccc(OC)c2OC)nc2ccccc21 (centres undefined)	19	-1.3	3	0	-1%
COC(=O)C/C(O)=C(/N=Nc1cccc(C(F)(F)F)c1)C(=O)OC	0	-0.3	-1	nt	8%
COc1ccc(NC(=O)C(=O)NNC(=O)C(C)Oc2ccc(Cl)cc2Cl)cc1 (centres undefined)	-4	1.1	7	nt	?
Cc1c(NC(=O)CC(=O)Nc2c(C)n(C)n(-c3ccccc3)c2=O)c(=O)n(-c2ccccc2)n1C	-1	-1.2	4	-44	-4%
Cc1ccc(N=C2SC(C(=O)Nc3ccc(OC(F)(F)F)cc3)C(N)=C2C(=O)Nc2c(C)cc(C)cc2C)cc1 (centres undefined)	3	nt	-35	-18	76%
Clc1cccc(Cl)c1CSc1nnc(-c2sccc2-n2cccc2)o1	-6	12	-5	-2	1%
Cc1nn(-c2ccccc2)c(C)c1C(=O)NCc1ccc(S(N)(=O)=O)cc1	-2	0.4	nt	nt	nt
CCOC(=O)c1c(C)n(C)c2cc(Br)c(O)c(O)c12	16	-2.9	nt	nt	-15%
O=C(NC1(C(F)(F)F)Oc2ccccc2O1)N1CCC2(CC1)OCCO2	?	-4.0	-2	-6	-6%	Arbovirus anti repeat=3
O=C(CCc1ccc(S(=O)(=O)NC2CCCCC2)cc1)NCc1ccccc1	5	-0.6	1	-14	4%
Cc1cccc(N2CCN(c3cc(C)nc4nnnn34)CC2C)c1 (centres undefined)	-2	-1.7	-1	-20	nt
COc1ccc(OCc2nc3c4cc(OC)c(OC)cc4nc(=S)n3[nH]2)cc1	3	-2.9	-15	-36	2%
Cc1cc(O)cc(O)c1C=NCc1ccco1	-4	-3.8	12	-9	9%
Cc1ccc(OCC(=O)c2cc(C)c(C)cc2C)c([N+](=O)[O-])n1	2	-4.0	2	-12	-4%
O=C(NCCCn1ccnc1)c1cccc(S(=O)(=O)Nc2ccccc2F)c1	1	-0.4	-2	-68	-6%	Arbovirus anti repeat=2
Cc1nc2c(C)cccn2c1C(=O)c1ccccc1	0	1.1	-4	-2	4%
CC(=O)c1ccc(NC(=O)C(C)NCc2ccc(Cl)cc2)cc1 (centres undefined)	-7	-0.7	0	nt	8%
Cc1ccc(-c2csc(NC(=O)CN3CC(C)OC(C)C3)n2)cc1 (centres undefined)	3	-1.4	nt	nt	nt
Cc1ccccc1NC(=O)CCn1c(=O)oc2ccccc21	1	-2.5	4	-19	70%	Arbovirus anti repeat=2

Already shown: an excerpt of the list.
SMILES	Mtb betalactam	RecA intein inh	Arbovirus anti	YopH PTP inh	Mtb growth	others
Cc1ccc(-c2csc(NC(=O)CN3CC(C)OC(C)C3)n2)cc1 (centres undefined)	3	-1.4	nt	nt	nt
Cc1ccccc1NC(=O)CCn1c(=O)oc2ccccc21	1	-2.5	4	-19	70%	Arbovirus anti repeat=2

New compounds follow:
SMILES	Mtb betalactam	RecA intein inh	Arbovirus anti	YopH PTP inh	Mtb growth	others
O=C(Nc1ccccc1C(=O)Nc1nnc(C(F)(F)F)s1)c1ccccc1	90	-0.2	nt	nt	?
CCO[C@@H]1OC(C(=O)Nc2ccccc2)=C[C@H](c2coc3ccccc3c2=O)[C@H]1CCCO	7	2.0	2	nt	9%
CC(=O)Nc1n[nH]c(-c2ccc(C)cc2)c1C	-3	nt	0	nt	4%
N#CCC(=O)Nc1ccccc1C(=O)O	2	0.7	-4	-15	22%	Arbovirus anti repeat=2
Cc1cc(=O)oc2cc(OCC(=O)N/N=C/c3ccccc3O)ccc12	5	-3.3	nt	nt	nt
Cc1ccc(C(=O)c2nccn2C)cc1C	3	0.7	nt	nt	nt
CCOC(=O)N1CCN(C(=O)c2ccc3c(=O)n(CCc4ccccc4)c(=O)[nH]c3c2)CC1	1	-1.3	6	-4	-3%
COc1cccc(NC(=O)CSc2nnc(-c3cc(C)[nH]n3)n2N)c1	3	1.6	nt	nt	nt
O=C(Nc1ccc(Cl)cn1)c1cccc(OCc2ccccc2)c1	15	2.6	nt	nt	nt
CCOC(=O)c1cnc(-n2nc(C)cc2C)nc1N1CC(C)OC(C)C1 (centres undefined)	?	2.3	nt	-30	-1%
CC1=C(CO)C(=O)OC([C@@H](C)C2CC[C@H]3C4C[C@H]5O[C@]56[C@@H](O)C=CC(=O)[C@]6(C)C4CC[C@]23C)C1 (some centres undefined)	4	8.8	nt	nt	1%
NNC(=O)[C@H]1C[C@@H]1c1ccccc1	-6	-0.9	-7	-12	-1%
COc1ccc(/C(N)=N/OC(=O)Cc2cccs2)cc1	?	3.0	-4	-25	11%
Clc1cc(Cl)c2nc(N3CCCCC3)sc2c1	84	3.0	5	-29	-6%
Cc1cc(NC(=O)CCN2C(=O)C3C4C=CC(C4)C3C2=O)c2ccccc2n1 (centres undefined)	-9	-1.8	-2	-9	3%
COc1cc(C(=O)O[C@H]2CC(C)=CC[C@@]3(C)CC[C@@](O)(C(C)C)[C@H]23)ccc1O	2	11	nt	nt	nt
CN(C)c1cccc(C(=O)Nc2cccc(S(=O)(=O)NC3=NCCC3)c2)c1	-22	-5.6	nt	nt	nt
CC(C)(C)NC(=O)C(c1ccc(F)cc1)N(CCc1ccccc1)C(=O)c1ccn[nH]1 (centres undefined)	-1	-0.1	-7	nt	1%
Cc1nn(CC(=O)NCCCN2CCC(Cc3ccccc3)CC2)c(=O)c2cc(-c3ccccc3)nn12	?	2.8	nt	nt	nt
CN(Cc1nccn1C)C(=O)c1cc(COc2ccc3ncccc3c2)on1	-1	-6.1	7	nt	-4%

Copied from above, 12 compounds:
SMILES	Mtb betalactam	RecA intein inh	Arbovirus anti	YopH PTP inh	Mtb growth	others
N#CCC(=O)Nc1ccccc1C(=O)O	2	0.7	-4	-15	22%	Arbovirus anti repeat=2
Cc1cc(=O)oc2cc(OCC(=O)N/N=C/c3ccccc3O)ccc12	5	-3.3	nt	nt	nt
Cc1ccc(C(=O)c2nccn2C)cc1C	3	0.7	nt	nt	nt
CCOC(=O)N1CCN(C(=O)c2ccc3c(=O)n(CCc4ccccc4)c(=O)[nH]c3c2)CC1	1	-1.3	6	-4	-3%
COc1cccc(NC(=O)CSc2nnc(-c3cc(C)[nH]n3)n2N)c1	3	1.6	nt	nt	nt
O=C(Nc1ccc(Cl)cn1)c1cccc(OCc2ccccc2)c1	15	2.6	nt	nt	nt
CCOC(=O)c1cnc(-n2nc(C)cc2C)nc1N1CC(C)OC(C)C1 (centres undefined)	?	2.3	nt	-30	-1%
CC1=C(CO)C(=O)OC([C@@H](C)C2CC[C@H]3C4C[C@H]5O[C@]56[C@@H](O)C=CC(=O)[C@]6(C)C4CC[C@]23C)C1 (some centres undefined)	4	8.8	nt	nt	1%
NNC(=O)[C@H]1C[C@@H]1c1ccccc1	-6	-0.9	-7	-12	-1%
COc1ccc(/C(N)=N/OC(=O)Cc2cccs2)cc1	?	3.0	-4	-25	11%
Clc1cc(Cl)c2nc(N3CCCCC3)sc2c1	84	3.0	5	-29	-6%
Cc1cc(NC(=O)CCN2C(=O)C3C4C=CC(C4)C3C2=O)c2ccccc2n1 (centres undefined)	-9	-1.8	-2	-9	3%

Other results:
SMILES	Mtb betalactam	RecA intein inh	Arbovirus anti	YopH PTP inh	Mtb growth	others
COc1ccc(OC)c2sc(NC(=O)c3ccc(S(=O)(=O)N4CCOCC4)cc3)nc12	8	0.2	6	-9	-8%
O=C(/C=C/c1cccs1)NC(=S)Nc1ccccc1	-3	3.4	10	nt	-2%
Cc1ccc(-c2noc(CN(C(=O)c3cccs3)C(C)C)n2)cc1	-5	4.4	4	37	2%
CN(CC(=O)Nc1ccc(Br)cc1)Cc1ccccc1	-2	3.5	nt	nt	nt
O=C(CN1CCC(C(=O)c2ccc3c(c2)OCCO3)CC1)NCc1ccccc1	-4	2.4	nt	nt	nt
COc1ccc(C(=O)C[n+]2ccc(-c3nnc4n3CCCCC4)cc2)cc1	27	3.2	nt	nt	-14%

An excerpt, so the mix of outcomes need not match the whole.
